Screening data as filed in PubChem BioAssay.
CtBP-E1A inh – qHTS Assay for Inhibitors of the CtBP/E1A Interaction; CtBP / adenovirus E1A interaction (AlphaScreen); AlphaScreen GST-E1A/His-CtBP binding, 1536-well; stronger effect = lower value; control for the full effect not named in the record; activity change, % (test concentration not listed); actives 0.49% (n = 340,000); AID 651724, 2012; in the data active means activity change below about -65%; inconclusive means about -30% to -65%; inactive means above about -30%; further: on the % scale 0 is the no-effect control and ±100 the full control effect; compound concentration not given in the record
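Steps: dispense buffer (Tris pH 8.0, NaCl 300 mM, TCEP 1 mM, BSA, Tween 20); add 5X protein mix (GST-E1A, His-CtBP, 125 nM each); pin 23 nL compound; 2 h at 37 °C, dark; add 5X beads (50 ug/mL); 1 h; read.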
D2 agonist – Beta-Arrestin HTS for Positive Allosteric Modulators of the Human D2 Dopamine Receptor: Agonists; DiscoveRx PathHunter D2 beta-arrestin, luminescence, 90 min; 100% = 57 uM dopamine signal; activation, % (no concentration beside the values); D(2) dopamine receptor (Homo sapiens), P14416; AID 624465, 2012; actives 0.084% (n = 360,000); in the data active = activation above about 40%; inconclusive = about 15% to 40%; inactive = below about 15%; further: compound concentration not given in the record; the text of the record calls up to 30% inactive
Target sequence (P14416 whole entry, looked up): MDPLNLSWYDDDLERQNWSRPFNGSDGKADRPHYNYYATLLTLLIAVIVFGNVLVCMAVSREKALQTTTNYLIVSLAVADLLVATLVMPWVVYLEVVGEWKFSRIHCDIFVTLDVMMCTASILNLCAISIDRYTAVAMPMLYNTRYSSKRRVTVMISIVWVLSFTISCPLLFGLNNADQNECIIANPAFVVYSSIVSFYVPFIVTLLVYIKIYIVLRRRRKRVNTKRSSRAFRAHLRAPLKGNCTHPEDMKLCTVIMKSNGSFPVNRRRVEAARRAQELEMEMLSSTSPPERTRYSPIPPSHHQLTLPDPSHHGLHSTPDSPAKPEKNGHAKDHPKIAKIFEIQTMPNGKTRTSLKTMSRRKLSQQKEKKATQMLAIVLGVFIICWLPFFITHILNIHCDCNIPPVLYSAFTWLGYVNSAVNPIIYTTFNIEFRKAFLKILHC
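Agonist mode: compounds alone added to overnight-plated D2 PathHunter cells for 90 min at 37 C, with 57 uM final dopamine (EC100) defining full response. Beta-arrestin recruitment detected by chemiluminescent reagent, read after 1 h at ambient temperature.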
Six1-Eya2 blk – qHTS Assay for Inhibitors of the Six1/Eya2 Interaction; AlphaScreen GST-Six1/His-Eya2 binding, biochemical; stronger effect = lower value; control for the full effect not named in the record; Homeobox protein SIX1 (Homo sapiens) + Protein phosphatase EYA2 (Homo sapiens), …; AID 651725, 2012; actives 0.56% (n = 360,000); activity change, % (test concentration not listed); in the data active = activity change below about -65%; inconclusive = about -30% to -65%; inactive = above about -30%; further: on the % scale 0 is the no-effect control and ±100 the full control effect; compound concentration not given in the record
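Compounds are tested against tagged Six1 and Eya2 proteins bridged by glutathione donor and nickel acceptor beads; after a one-hour incubation at 37 °C without light, AlphaScreen emission is recorded.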
PINK1 modulator – A Quantitative High throughput Screen to Identify Chemical Modulators of PINK1 Expression. PINK1 immunofluorescence, high-content cytometry, 24 h. Potency, µM (series often up to 76.6 µM), for inactives: at the top dose activation (PINK1 increase), most hits filed as activators. actives 0.2% (n = 410,000); active = well fitted activation curve with a large enough effect; inconclusive = small, poorly fitted or top-dose-only effect; inactive = flat fitted curve, though single readings scatter; cell line not stated here;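 further: potency means the concentration at half of the fitted maximal effect; % of control where 0% means no effect; nearly all actives have a fitted effect of over 65% in size; a mitochondrial uncoupler was the plate control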
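PINK1 protein level read as immunofluorescence by microplate cytometer in a fixed, stained stable cell line after 24 h exposure to five compound concentrations, with CCCP as control.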
TRPML1 agonist – qHTS for Agonists of the Human Mucolipin Transient Receptor Potential 1 (TRPML1); activation, % (no concentration beside the values); actives 0.12% (n = 410,000); Mucolipin-1 (Homo sapiens), Q9GZU1; TRPML1-expressing cells, Ca2+ dye fluorescence, FDSS; host cell line not named in the record; reference of the full effect not given here; AID 624414, 2012; in the data active = activation above about 50%; inconclusive = about 30% to 50%; inactive = below about 30%; further: 0% is about no effect; the text of the record puts the active cut at 80%
Target sequence (Q9GZU1 whole entry, looked up): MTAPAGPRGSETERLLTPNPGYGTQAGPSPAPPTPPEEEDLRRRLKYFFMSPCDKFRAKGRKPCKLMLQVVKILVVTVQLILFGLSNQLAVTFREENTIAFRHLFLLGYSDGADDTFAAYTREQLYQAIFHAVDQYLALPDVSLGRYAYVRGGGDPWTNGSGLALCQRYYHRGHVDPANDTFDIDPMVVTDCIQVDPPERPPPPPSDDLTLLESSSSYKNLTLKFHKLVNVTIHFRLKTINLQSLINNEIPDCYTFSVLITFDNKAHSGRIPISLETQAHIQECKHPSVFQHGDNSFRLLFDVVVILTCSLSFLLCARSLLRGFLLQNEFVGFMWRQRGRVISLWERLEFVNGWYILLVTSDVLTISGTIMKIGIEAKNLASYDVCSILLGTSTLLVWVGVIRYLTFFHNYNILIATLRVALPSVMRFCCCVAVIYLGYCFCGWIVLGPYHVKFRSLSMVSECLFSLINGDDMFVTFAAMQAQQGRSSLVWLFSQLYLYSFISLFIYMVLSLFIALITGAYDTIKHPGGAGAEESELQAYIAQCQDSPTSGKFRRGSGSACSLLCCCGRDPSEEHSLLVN
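TRPML1-DL cells, Tet-induced overnight (~16 h, 37 degrees C), loaded 45-90 min at room temperature with Ca8 no-wash calcium dye plus quencher. FDSS fluorescence: 10 s baseline, compound pin-transfer, 110 s agonist read, then EC80 54-4 (4uM final) and 110 s antagonist read.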
TRPML1 blocker – qHTS for Inhibitors of the Human Mucolipin Transient Receptor Potential 1 (TRPML1). actives 0.02% (n = 390,000). Mucolipin-1 (Homo sapiens), Q9GZU1. TRPML1-inducible cells, Ca2+ dye fluorescence, FDSS; stronger effect = lower value; inhibition of EC80 agonist-evoked calcium signal. activity change, negative = inhibition, % (test concentration not listed); in the data active means activity change below about -50%; inconclusive means about -30% to -50%; inactive means above about -30%;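 further: stimulus is agonist 54-4 at its EC80 concentration; on the % scale 0 is the no-effect control and ±100 the full control effect; compound concentration not given in the record; the text of the record puts the active cut at -80%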
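Tet-induced TRPML1-DL cells loaded with Ca8 no-wash calcium dye were read kinetically on FDSS. Compound addition was followed by EC80 agonist 54-4 (4 uM final); inhibition was read over 110 s.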
Numbers without * were called inactive; ? = inconclusive; . = no result given; [ ] = another dose, or the depositor's remark.

SMILES	CtBP-E1A inh	D2 agonist	Six1-Eya2 blk	PINK1 modulator	TRPML1 agonist	TRPML1 blocker
COC(=O)CCC(=O)N1CCC(Oc2cccc(C(=O)NCc3ccccn3)c2)CC1	-3	-0.4	0	-0.8%	-0.9	-1
CN(CC(=O)Nc1ccccc1Br)C(=O)CN1CCN(Cc2cccc(Cl)c2)CC1	0	1.2	-1	0.2%	0.3	5
CC(C)CC(OC(=O)c1ccco1)C(=O)NC1CCCCC1 (stereo not drawn)	5	-11	-14	-0.3%	0.4	47
Cc1c(C(=O)N2CCCC2)sc(NC(=O)c2ccc(Cl)cc2)c1C#N	-1	-0.9	4	4.2%	1.1	-19
COc1ccc(Cl)cc1S(=O)(=O)Nc1ccc(Cl)cn1	.	-0.5	11	0.1%	1.0	13
CCN(CC)C(=O)[C@H]1C[C@H](CC(=O)NCCCN(C)C)C(=O)N2CCc3c([nH]c4cc(-c5ccco5)ccc34)[C@]12C	-13	-2.2	-14	-0.1%	-0.2	-17
COc1ccccc1C(=O)c1cn(CC(=O)Nc2ccccc2F)c2nc(C)ccc2c1=O	.	.	.	1.7%	2.1	18
N#C/C(=C\c1cccc(F)c1)c1nc(-c2cc3ccccc3oc2=O)cs1	.	.	.	0.2%	-0.4	-8
O=C(CN(Cc1ccco1)C(=O)CNS(=O)(=O)c1ccc(Cl)cc1)NCc1ccco1	1	-3.2	-6	-1.6%	-0.5	9
O=C(NCc1ccccc1)c1cccc(COc2cc(Cl)ccc2Cl)c1	28	-1.9	13	5.2%	0.0	-11
O=C(NCc1ccc(F)cc1)c1cc(C2CCCCN2S(=O)(=O)c2cccs2)on1 (stereo not drawn)	0	-2.7	-3	-0.3%	0.5	.
CSc1nc2nc(C)c(CCC(=O)OCC(=O)Nc3ccc(F)cc3)c(C)n2n1	-2	-3.9	-3	-0.4%	0.5	7
O=C(Nc1c(Cl)cccc1Cl)c1cc(-c2ccco2)on1	0	3.4	-5	11%	-0.3	5
CC1=NN(c2ccccc2)C(=O)/C1=C\c1c(C)[nH]n(-c2ccccc2)c1=O	2	-2.5	4	7.1%	1.5	19
CCOc1ccc(-c2cc(N)n(S(=O)(=O)c3cccc4nsnc34)n2)cc1	-26	0.4	-9	3.4%	3.4	-10
Cc1ccc(-c2nn(-c3ccccc3)cc2/C=N/NC(=O)c2ccncc2)o1	-18	1.1	-26	8.0%	-0.6	3
Cc1ccc(NC(=S)NNC(=S)Nc2ccc(C)cc2C)cc1	2	-4.0	-5	?	3.1	53
C=CCn1c(SCc2ccc(C#N)cc2)nnc1-c1cccc(Cl)c1	0	-5.3	-7	2.2%	0.8	4
COc1cccc(NC(=O)CN2C(=O)CC(c3ccco3)Sc3ccccc32)c1 (stereo not drawn)	.	.	.	2.6%	2.2	28
COc1ccc(C)cc1NC(=O)CSc1nc2ccccc2nc1N1CC(C)OC(C)C1 (stereo not drawn)	11	-1.5	2	7.8%	-0.2	-3
CCCCCCC[C@H](N)[C@H](O)C(=O)N(C)[C@@H](CCS(C)=O)C(=O)N[C@@H](Cc1ccc(O)cc1)C(=O)N[C@@H](Cc1ccc(O)cc1)C(=O)O (stereo partly drawn)	-20	-3.5	13	0.0%	0.7	0
O=C(CNC(=O)/C(=C/c1ccccc1)NC(=O)c1ccc(Br)cc1)OCc1ccccc1	-1	8.5	-9	5.0%	-0.6	2
CC(C)(C)C1CCc2c(sc(NC(=O)c3cc(C4CC4)on3)c2C#N)C1 (stereo not drawn)	1	-2.4	0	3.2%	0.3	21
O=C(CCC(=O)c1cccs1)NCCc1ccc(F)cc1	0	0.5	4	-0.9%	-0.3	-10
COC(=O)c1ccc(OCC(O)CN2CCc3cc(OC)c(OC)cc3C2c2ccccc2)cc1 (stereo not drawn)	-15	-1.8	-21	-0.2%	1.2	-1
CC1OC(OCC2OC(Oc3c(-c4ccc(O)cc4)oc4cc(O)cc(O)c4c3=O)C(O)C(O)C2O)C(O)C(O)C1O (stereo not drawn)	3	-3.1	-13	-0.2%	.	.
CC1(C)CC(=O)C(Sc2ccccc2[N+](=O)[O-])=C(O)C1	-6	-3.4	-19	1.5%	0.0	21
Cc1ccc(NC(=O)c2ccccc2NS(=O)(=O)c2ccc(Cl)s2)cc1	7	0.4	1	20µM*	0.5	7
CCCSc1cc(N2CCCC2)nc(-c2ccccc2)n1	-2	0.1	14	7.5%	-0.6	53
CCOC(=O)C1(C)CCN1C(=O)c1ccc(Cl)cc1Cl (stereo not drawn)	9	1.0	17	1.4%	-0.8	.
N#Cc1nc(COc2cccc(Cl)c2)oc1NCCc1ccccc1	.	.	.	-1.5%	3.1	62
O=C(CNS(=O)(=O)c1ccc2ccccc2c1)OCc1nnc(-c2ccccc2)o1	0	-4.0	-22	7.0%	-0.2	4
COc1ccc(OC)c(-n2c(SC)nnc2-c2c[nH]c3ccccc23)c1	-5	1.4	0	0.0%	1.1	50
CCOC(=O)Cc1csc(NC(=O)CSc2nnc(C)n2C)n1	0	-1.1	6	-0.8%	-0.5	-5
Cc1ccccc1N1C(=O)CN(Cc2sccc2C)C1=S	1	-6.6	2	0.2%	-0.9	13
CCCC1Cc2c(sc3ncnc(N)c23)CO1 (stereo not drawn)	-9	-2.5	-11	5.1%	-0.2	-6
Cc1cccc[n+]1CC(=O)Nc1ccc([N+](=O)[O-])cc1Cl	-11	-2.1	-5	-3.7%	1.1	7
Cc1ccc(-c2nnc(SCC(=O)N(CC(C)C)c3c(N)n(Cc4ccccc4)c(=O)[nH]c3=O)n2N)cc1	-5	-2.0	3	-2.2%	0.9	-18
NC(=O)C[n+]1cccc2ccccc21	10	-0.3	2	5.3%[38.3 µM]	4.0	4
O=C(NC1CC1)c1cc2ccccc2o1	6	?	0	-0.5%	0.4	7
COc1ccc(N2C(=O)CC(Nc3cccc([N+](=O)[O-])c3)C2=O)cc1 (stereo not drawn)	.	-5.2	1	-0.5%	-0.8	21
CC(/C=C1\SC(=S)N(CC(=O)N2CCN(c3ccccc3)CC2)C1=O)=C\c1ccccc1	-10	0.8	-13	1.6%	0.9	-18
Cc1nc(-c2ccc(NC(=O)C(C)(C)C)cc2)c(-c2ccccc2)o1	3	14	-6	2.4%	-0.4	-2
COc1ccc(S(=O)(=O)N2CCN(CC(=O)Nc3cccc(OC)c3)CC2)cc1	.	-3.4	-7	0.0%	0.0	4
O=C(CSc1nc(-c2ccccc2)cs1)NCc1ccco1	3	0.7	-10	2.2%	1.8	5

Full records, quoted from the list. Screens in order: CtBP-E1A inh, D2 agonist, Six1-Eya2 blk, PINK1 modulator, TRPML1 agonist, TRPML1 blocker
CCOC(=O)Cc1csc(NC(=O)CSc2nnc(C)n2C)n1 reads 0, -1.1, 6, -0.8%, -0.5, -5
NC(=O)C[n+]1cccc2ccccc21 reads 10, -0.3, 2, 5.3%[38.3 µM], 4.0, 4

Returning to the listing, repeating the seven entries before the break.
SMILES	CtBP-E1A inh	D2 agonist	Six1-Eya2 blk	PINK1 modulator	TRPML1 agonist	TRPML1 blocker
NC(=O)C[n+]1cccc2ccccc21	10	-0.3	2	5.3%[38.3 µM]	4.0	4
O=C(NC1CC1)c1cc2ccccc2o1	6	?	0	-0.5%	0.4	7
COc1ccc(N2C(=O)CC(Nc3cccc([N+](=O)[O-])c3)C2=O)cc1 (stereo not drawn)	.	-5.2	1	-0.5%	-0.8	21
CC(/C=C1\SC(=S)N(CC(=O)N2CCN(c3ccccc3)CC2)C1=O)=C\c1ccccc1	-10	0.8	-13	1.6%	0.9	-18
Cc1nc(-c2ccc(NC(=O)C(C)(C)C)cc2)c(-c2ccccc2)o1	3	14	-6	2.4%	-0.4	-2
COc1ccc(S(=O)(=O)N2CCN(CC(=O)Nc3cccc(OC)c3)CC2)cc1	.	-3.4	-7	0.0%	0.0	4
O=C(CSc1nc(-c2ccccc2)cs1)NCc1ccco1	3	0.7	-10	2.2%	1.8	5
O=C(Nc1ccccc1)NC1CCN(Cc2nnnn2C2CCCCC2)CC1	2	-1.0	1	-2.7%	-0.6	-17
Cc1ccc(S(=O)(=O)Nc2ccc(=O)n(Cc3ccc(Cl)c(Cl)c3)c2)cc1	-9	-2.4	-2	-0.5%	0.1	12
CCC(C)NC(=O)COC(=O)c1oc2ccccc2c1CSc1ccc(Cl)cc1 (stereo not drawn)	.	-4.9	9	4.6%	1.4	5
S=C(Nc1ccccc1)Nc1ccc(Br)cc1	-6	-3.8	-3	?	-0.1	-8
O=S(=O)(CCNCc1cccs1)c1ccc(Cl)cc1	8	0.5	5	1.0%	-0.4	6
O=C(NCCc1ccc2c(c1)OCCO2)c1cc(F)cc(F)c1	0	0.3	0	0.3%	-0.5	-7
Cn1c(=O)c2sccc2n2c(CCCC(=O)NCc3ccc4c(c3)OCO4)nnc12	-3	-1.8	-5	22%[38.3 µM]	-0.2	17
CN(c1ccc(OCC(=O)OCC(=O)Nc2ccccc2)cc1)S(=O)(=O)c1ccc(F)cc1	4	-0.7	38	1.0%	6.8	28
Cc1nn(-c2ccccc2)c(C)c1C(=O)OCC(=O)Nc1ccc(C(N)=O)cc1	5	-1.5	-8	0.8%	0.3	4
Cc1ccc(S(=O)(=O)N2CCOCC2)cc1C(=O)OCC(=O)NC1CCS(=O)(=O)C1 (stereo not drawn)	7	0.0	6	-1.6%	0.9	-11
Cc1cc(-c2ccc(S(=O)(=O)NCc3ccc(F)cc3)cc2)on1	2	0.4	4	1.7%	4.0	-12
COc1cc(OC)c(CN2CCC(CO)(CCOc3ccccc3)CC2)c(OC)c1	-6	-2.0	0	-1.0%	0.1	37
CCOC(=O)c1c(NC(=S)Nc2ccc(C)cc2)sc2c1CCC2	2	-0.2	3	17%	-0.9	0
COc1ccc(-c2nc(C(N)=O)c3[nH]c(=O)n(-c4cccc(Cl)c4)c3n2)cc1OC	0	-1.0	-5	2.5%	3.9	28
Cc1cc(C)c(/C=C/c2onc(C)c2S(=O)(=O)N2CCC(C(=O)NCCc3ccccc3)CC2)c(C)c1	.	.	.	-0.5%	-0.7	1
O=C(O)c1ccc(CSc2nnc(-c3ccco3)o2)cc1	7	4.2	2	1.1%	0.2	3
COc1ccc(NC(=O)c2cnc(N3CCCCC3)c3ccccc23)cc1Cl	.	.	.	2.9%	0.7	3
O=C1C=C(c2cccc3c2oc2ccccc23)C[C@@H](c2ccc(F)cc2)C1	3	-2.7	-4	1.9%	0.7	7
Cc1ccc(Nc2nc(N)nc(CSC(=S)N3CCN(c4ccccc4)CC3)n2)cc1	0	-2.8	-3	2.9%	-0.7	-7
